HNF4A DNA FP: change in binding of human HNF4 alpha to DNA. activity change, % at 10 µM. HNF4a-FITC DNA binding, fluorescence polarization, 1 h. 0.3% of 360,000 active. AID 1224865; in the data active = activity change above about 30%, passing the limit was not always enough;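 also: controls were the assay level and a saturating level of protein; the project sought stronger binding though the title names inhibitors; some compounds called inactive have numbers as strong as hits; positive values seem to mean higher polarization but the record does not say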
Target sequence (P41235 whole entry, looked up): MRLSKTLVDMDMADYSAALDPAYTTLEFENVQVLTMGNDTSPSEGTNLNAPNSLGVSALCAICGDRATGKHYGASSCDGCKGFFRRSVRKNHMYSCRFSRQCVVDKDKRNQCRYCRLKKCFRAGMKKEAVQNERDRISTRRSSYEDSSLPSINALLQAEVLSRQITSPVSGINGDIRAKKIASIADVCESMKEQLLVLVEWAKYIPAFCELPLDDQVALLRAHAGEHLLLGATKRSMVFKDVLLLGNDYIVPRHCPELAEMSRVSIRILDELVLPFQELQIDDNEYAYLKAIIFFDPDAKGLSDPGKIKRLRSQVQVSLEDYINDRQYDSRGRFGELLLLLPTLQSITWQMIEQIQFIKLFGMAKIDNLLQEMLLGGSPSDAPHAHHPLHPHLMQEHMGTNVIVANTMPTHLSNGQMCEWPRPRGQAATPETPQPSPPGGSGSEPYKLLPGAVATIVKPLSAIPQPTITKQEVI
Calb FLC: affects C. albicans growth with fluconazole. 0.57% of 300,000 active. C. albicans CaCi-2 (fluconazole-resistant clinical isolate) + fluconazole, Alamar Blue growth, 48 h. growth inhibition, % (no concentration beside the values);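 active = most replicates above 75%; inconclusive = exactly half above 75%; inactive = most below 75%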;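 also: all wells also contain fluconazole at 8 µg/ml as a sub-toxic cotreatment; 0% = median of DMSO wells and 100% = median of geldanamycin control wells; wells of about 8 µL received 7.5 nL stock; the first replicate is given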
Beta2AR agonist: activates human beta-2 adrenergic receptor causing internalization | P07550 | Am2.2-beta2AR cells, FAP receptor internalization, flow cytometry; reference of the scale not given here | response, % (test concentration not listed) | 0.43% of 340,000 active;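 active = response above a set limit, near 3 SD of response in nonfluorescent compounds, cut at about 42% in these data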;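 also: stock transfer was 100 nL into about 11 µL; a reference agonist was the positive control; negative values mostly stem from fluorescent compounds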
Target sequence (P07550 whole entry, looked up): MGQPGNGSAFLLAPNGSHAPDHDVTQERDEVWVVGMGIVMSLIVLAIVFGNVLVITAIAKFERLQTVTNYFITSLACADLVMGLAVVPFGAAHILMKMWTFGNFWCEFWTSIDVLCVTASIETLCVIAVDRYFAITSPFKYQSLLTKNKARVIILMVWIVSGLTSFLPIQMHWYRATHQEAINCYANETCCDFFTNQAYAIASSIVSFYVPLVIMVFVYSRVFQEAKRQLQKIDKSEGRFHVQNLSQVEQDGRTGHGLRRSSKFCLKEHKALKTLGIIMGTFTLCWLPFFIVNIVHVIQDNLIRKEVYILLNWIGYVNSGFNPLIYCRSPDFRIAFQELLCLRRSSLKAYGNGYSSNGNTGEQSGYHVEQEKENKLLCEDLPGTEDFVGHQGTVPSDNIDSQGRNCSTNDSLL
LANA-H2A inh: blocks KSHV LANA binding to histone H2A/H2B; Q9QR71; cell-free LANA-H2A/H2B peptide, fluorescence polarization; inhibition, % (concentration not given with the values); 0.6% of 320,000 active; AID 2629; in the data active = inhibition mostly above about 10%, no sharp cut-off; inactive = mostly below about 6.7%;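 also: stock transfer was 7.5 nL into about 10 µL; 0% = median of vehicle wells and 100% = median of positive control wells; one replicate is shown; the record names a cut of 25% in any replicate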
RanGTP-Imp inh: disruptors of Ran-importin-beta complex formation – biochemical, FRET, CFP-Ran, YFP-importin-beta, homogeneous, primary screen | AID 2216 | 1.1% of 300,000 active | inhibition, % (test concentration not listed) | cell-free CFP-Ran/YFP-importin-beta FRET ratio;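 active = most replicates above 15%; inconclusive = exactly half above 15%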;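 also: 0% = DMSO wells and 100% = Ran loaded with GDP instead of GTP; wells of about 40 µL received 100 nL stock; the first replicate is given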
Vif TR-FRET: inhibitors of Vif binding to APOBEC3G peptide, primary screen, biochemical, TR-FRET, GST-Vif 1-94, biotin-A3G peptide, dose response retest (AID 1117319); TR-FRET GST-Vif / biotin-A3G peptide binding; higher % means a stronger effect; test concentration not given here; strong numbers were not always called active; inhibition, %; hits with a dose series show IC50 in µM; 0.57% of 260,000 active;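 active = above the screen mean plus three standard deviations and confirmed in dose response; inconclusive = results disagree or hit not tested in dose response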;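 also: Vif residues 1-94 fused to GST binding biotinylated APOBEC3G peptide 110-148; 0% = full assay without inhibitor and 100% = GST in place of GST-Vif; retest series ran down from 100 µM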
ALR inh: blocks human ALR sulfhydryl oxidase activity; 3.8% of 290,000 active; purified ALR, DTT oxidation, H2O2 HRP-luminol luminescence; inhibition, % (test concentration not listed); P55789; AID 485317;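 active = mean and each replicate at 75% or more; inconclusive = only one of the two met; inactive = neither met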;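 also: stock transfer was 7.5 nL into about 7.5 µL; 0% = neutral wells and 100% = wells with inactivated enzyme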
Target sequence (P55789 whole entry, looked up): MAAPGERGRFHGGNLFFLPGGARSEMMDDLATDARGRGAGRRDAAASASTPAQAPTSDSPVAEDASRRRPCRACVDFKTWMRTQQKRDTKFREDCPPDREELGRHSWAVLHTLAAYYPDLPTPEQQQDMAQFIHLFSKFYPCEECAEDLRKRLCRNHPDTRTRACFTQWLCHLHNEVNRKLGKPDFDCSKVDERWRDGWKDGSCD
An asterisk follows results filed as active; & = joins results of further samples.

O=C(CCC1CCCN(C(=O)COc2ccccc2)C1)N1CCN(c2ccccn2)CC1 (centres undefined) was read as HNF4A DNA FP -0.7, Calb FLC -5.6, Beta2AR agonist -7.8, LANA-H2A inh 10.5, RanGTP-Imp inh 0.2, Vif TR-FRET -8.2% and ALR inh 0.3.
For O=C(NCCC1CCCCN1S(=O)(=O)c1ccc(F)cc1)C(=O)NCc1ccncc1 (centres undefined) the results were HNF4A DNA FP -1.9, Calb FLC -2.1, Beta2AR agonist 2.8, LANA-H2A inh -2.2, RanGTP-Imp inh 3.7 and ALR inh -0.6.
For CCc1ccc(N(C(=O)CCC(=O)Nc2cc(C)on2)C(C(=O)NC(C)(C)C)c2ccc(OC)cc2)cc1 (centres undefined) the results were HNF4A DNA FP 0.8, Calb FLC -3.8, Beta2AR agonist -6.2, LANA-H2A inh -1.3, RanGTP-Imp inh 0.7, Vif TR-FRET -7.7% and ALR inh -4.8.
C/C=C/c1ccc(OCCCCN2CCN(CC)CC2)c(OC)c1 was read as HNF4A DNA FP 1.3, Calb FLC -10.8, Beta2AR agonist 1.9, LANA-H2A inh 1.9 and RanGTP-Imp inh 7.8.
CC1CN(C(=O)COC(=O)c2cnc(Cl)c(Cl)c2)CC(C)O1 (centres undefined) was read as HNF4A DNA FP 2.5, Beta2AR agonist 4.6, LANA-H2A inh -2.8, Vif TR-FRET -12.2% and ALR inh -3.1.
`COCc1c(C(=O)N/N=C/c2cccc3ccccc23)nnn1-c1nonc1N` gave HNF4A DNA FP -1.5, Calb FLC -6.0, Beta2AR agonist 9.8, LANA-H2A inh -2.2, RanGTP-Imp inh 2.9 and ALR inh 1.6.
For CC(C)CC(c1nnnn1C(C)C)N1CCN(c2cccc(Cl)c2)CC1 (centres undefined) the results were HNF4A DNA FP 1.3, Calb FLC -7.7, Beta2AR agonist 1.8, LANA-H2A inh -1.4, RanGTP-Imp inh 1.9, Vif TR-FRET 5.3% and ALR inh -15.4.
`COc1ccc(N(Cc2ccccc2)C(=O)CSc2nnc(Cn3nnc4ccccc43)o2)cc1` gave HNF4A DNA FP -0.8, Calb FLC 8.4, Beta2AR agonist -0.2, LANA-H2A inh 11.2, RanGTP-Imp inh inconclusive, Vif TR-FRET -1.4% and ALR inh 4.8.
COc1ccc(/C=N/Nc2ccc([N+](=O)[O-])cc2)cc1O was read as HNF4A DNA FP 43.5*, Calb FLC -18.6, Beta2AR agonist 5.9, LANA-H2A inh -2.6, RanGTP-Imp inh -41.9, Vif TR-FRET -0.3% and ALR inh 95.3*.
For O=C(COC(=O)c1ccc([N+](=O)[O-])s1)Nc1cccc(S(=O)(=O)NC2=NCCCCC2)c1 the results were HNF4A DNA FP -4.0, Calb FLC 0.6, Beta2AR agonist 0.2, LANA-H2A inh -6.6, RanGTP-Imp inh 5.1, Vif TR-FRET 0.5% and ALR inh -33.1.
Screening CCCc1cc(C(=O)Nc2ccc(C(=O)OC)cc2)cs1 returned HNF4A DNA FP 1.5, Calb FLC 17.6, Beta2AR agonist -12.7, LANA-H2A inh -0.3, RanGTP-Imp inh -1.4 and ALR inh -26.0.
`COc1ccc(OCC(=O)NCCCNC(=O)COc2ccc(OC)cc2)cc1` gave HNF4A DNA FP -2.0, Beta2AR agonist -3.7, LANA-H2A inh 11.0* and ALR inh 0.0.
`Cc1c(O)ccc2c(CC(=O)N[C@@H](Cc3ccccc3)C(=O)O)cc(=O)oc12` gave HNF4A DNA FP -0.6, Calb FLC -0.9, Beta2AR agonist 3.9, LANA-H2A inh -0.9, RanGTP-Imp inh 68.0*, Vif TR-FRET -1.8% and ALR inh 15.7.
Screening O=c1[nH]c(C2CCN(S(=O)(=O)c3ccccc3C(F)(F)F)CC2)nc2c1nnn2Cc1ccccc1 returned HNF4A DNA FP -0.1, Calb FLC -0.2, Beta2AR agonist -3.3, LANA-H2A inh -1.3, RanGTP-Imp inh 5.8 and ALR inh 0.3.
Screening FC(F)Oc1cccc(NC(=S)N2CCN(c3ccccn3)CC2)c1 returned HNF4A DNA FP -0.5, Calb FLC -4.2, Beta2AR agonist 2.8, LANA-H2A inh 1.9, RanGTP-Imp inh -5.6, Vif TR-FRET -12.9% and ALR inh -33.8.
Cn1c(N/N=C/c2ccccc2)nc2sc3c(c2c1=O)CCC3 was read as HNF4A DNA FP 28.0, Calb FLC 1.5, Beta2AR agonist 6.6, LANA-H2A inh 9.2, RanGTP-Imp inh 2.8, Vif TR-FRET 21.5% and ALR inh 92.1*.
Screening COC(=O)c1ccc(CSc2nnc3sc4ccccc4n23)o1 returned HNF4A DNA FP -2.2, Calb FLC 3.1, Beta2AR agonist 0.1, LANA-H2A inh -1.8, RanGTP-Imp inh 4.2, Vif TR-FRET 15.5% and ALR inh -0.1.
For Cc1ccc(NC(=O)CN(C)C(=O)CN2C(=O)NC(C)(c3ccccc3)C2=O)cc1 (centres undefined) the results were HNF4A DNA FP 1.3, Calb FLC 31.4, Beta2AR agonist -1.2, LANA-H2A inh -5.6, RanGTP-Imp inh 2.9, Vif TR-FRET 2.4% and ALR inh -6.7.
COc1ccc(C)cc1NC(=O)C1CCCN(S(=O)(=O)c2ccc3[nH]c(=O)ccc3c2)C1 (centres undefined) was read as HNF4A DNA FP 6.1, Calb FLC -6.5, Beta2AR agonist 3.0, LANA-H2A inh -4.9, RanGTP-Imp inh -0.4, Vif TR-FRET 2.9% and ALR inh -9.2.
`CN1CCN(C(=O)c2ccc(Cn3cc(Cl)cn3)o2)CC1` gave HNF4A DNA FP -0.6, Calb FLC -0.6, Beta2AR agonist 2.4, LANA-H2A inh -5.4, RanGTP-Imp inh -1.2, Vif TR-FRET 1.6% and ALR inh -3.0.
Screening O=C(NCc1ccco1)C(c1ccc(F)cc1)N(CC1CCCO1)C(=O)Cn1nnc2ccccc21 (centres undefined) returned HNF4A DNA FP -0.7, Calb FLC 9.8, Beta2AR agonist -4.1, LANA-H2A inh 2.8, RanGTP-Imp inh 6.6, Vif TR-FRET 1.4%&-1.1% and ALR inh 2.1.
`Cc1c(NC(=O)c2ccc(S(=O)(=O)Nc3ccccc3F)cc2)c(=O)n(-c2ccccc2)n1C` gave HNF4A DNA FP 3.9, Beta2AR agonist -5.6, LANA-H2A inh 4.0, Vif TR-FRET -6.9% and ALR inh -0.7.
Screening CCn1cc(CCC(=O)O)c(C)n1 returned HNF4A DNA FP 0.5, Calb FLC 25.0, Beta2AR agonist 5.9, LANA-H2A inh -1.7, RanGTP-Imp inh 2.2, Vif TR-FRET -1.2% and ALR inh -2.0.
`O=C(OCC(=O)N1CCOCC1)c1ccccc1Br` gave HNF4A DNA FP 1.0, Calb FLC -2.3, Beta2AR agonist -2.9, LANA-H2A inh -4.0, RanGTP-Imp inh -6.4 and ALR inh -2.5.

Next part, overlapping the part above by two compounds.
Screening CCn1cc(CCC(=O)O)c(C)n1 returned HNF4A DNA FP 0.5, Calb FLC 25.0, Beta2AR agonist 5.9, LANA-H2A inh -1.7, RanGTP-Imp inh 2.2, Vif TR-FRET -1.2% and ALR inh -2.0.
`O=C(OCC(=O)N1CCOCC1)c1ccccc1Br` gave HNF4A DNA FP 1.0, Calb FLC -2.3, Beta2AR agonist -2.9, LANA-H2A inh -4.0, RanGTP-Imp inh -6.4 and ALR inh -2.5.
`N[C@@]12CCc3nonc3[C@]1(O)CC(c1ccccc1)=[N+]2[O-]` gave HNF4A DNA FP -1.0, Calb FLC -0.7, Beta2AR agonist -0.1, LANA-H2A inh -0.3, RanGTP-Imp inh 1.2 and Vif TR-FRET 1.5%.
Cc1ccccc1NC(=O)C[n+]1cc(-c2ccccc2)n2c1CCC2 was read as HNF4A DNA FP 2.4, Calb FLC 2.5, Beta2AR agonist -1.3, LANA-H2A inh -5.8, RanGTP-Imp inh inconclusive, Vif TR-FRET 11.5% and ALR inh -7.6.
N#Cc1ccc(CC(=O)c2ccccc2)[nH]c1=O was read as HNF4A DNA FP 4.8, Beta2AR agonist 8.6 and Vif TR-FRET 4.2%.
O=c1c(Cc2c(F)cccc2Cl)c(O)ccn1Cc1ccc2c(c1)OCO2 was read as HNF4A DNA FP -1.3, Calb FLC 20.9, Beta2AR agonist 1.7, LANA-H2A inh -7.9, RanGTP-Imp inh 9.3, Vif TR-FRET 7.8% and ALR inh -1.1.
COc1cc(CCNC(=O)c2ccccc2NC(=O)C2=C(C)OCCS2)cc(OC)c1OC was read as HNF4A DNA FP 0.3, Calb FLC -6.9, Beta2AR agonist 13.1, LANA-H2A inh 7.0, RanGTP-Imp inh -1.5 and ALR inh -0.9.
Screening CC(=O)Nc1cc(-c2ccccc2)nn1Cc1ccc(Cl)cc1 returned HNF4A DNA FP -5.3, Calb FLC 2.7, Beta2AR agonist -0.6, LANA-H2A inh 3.3, RanGTP-Imp inh 8.2, Vif TR-FRET -0.4% and ALR inh -1.5.
`CCOc1ccc2nc(SCC)[nH]c2c1` gave HNF4A DNA FP 1.3, Calb FLC -11.2, Beta2AR agonist -0.3, LANA-H2A inh 1.8, RanGTP-Imp inh -3.1, Vif TR-FRET 2.8% and ALR inh 43.9.
`CCOc1cc(CO)cc(Br)c1OCC(=O)O` gave HNF4A DNA FP -5.1, Calb FLC 22.1, Beta2AR agonist 6.6, LANA-H2A inh 1.3, RanGTP-Imp inh -5.0 and Vif TR-FRET 8.0%.
COc1ccc(N2CCN(C(=O)Cc3coc4cc(C)ccc34)CC2)cc1 was read as HNF4A DNA FP 0.9, Calb FLC -8.0, Beta2AR agonist -4.5, LANA-H2A inh 4.9, RanGTP-Imp inh 0.9, Vif TR-FRET 10.1% and ALR inh 44.7.
Screening CCOC(=O)C(CC)/C(C)=N\NC(=O)CCC(=O)Nc1ccc(Cl)cc1Cl (centres undefined) returned HNF4A DNA FP 1.0, Calb FLC -2.6, Beta2AR agonist 0.8, LANA-H2A inh -4.9, RanGTP-Imp inh 0.4, Vif TR-FRET 7.9% and ALR inh -20.0.
For O=S(=O)(NC1c2cccc3cccc(c23)C1Sc1ncccn1)c1ccc(Cl)cc1 (centres undefined) the results were HNF4A DNA FP -2.1, Calb FLC -5.0, Beta2AR agonist 8.7, LANA-H2A inh -2.3, RanGTP-Imp inh inconclusive, Vif TR-FRET inconclusive and ALR inh -1.8.
`COCCSc1ccccc1C(=O)N1CCc2ccccc21` gave HNF4A DNA FP -0.8, Calb FLC 1.2, Beta2AR agonist -7.8, LANA-H2A inh -5.9, RanGTP-Imp inh 2.1 and ALR inh -7.0.
CCNC(=O)C1(c2ccccc2)CCCC1 was read as HNF4A DNA FP 3.9, Calb FLC -0.6, Beta2AR agonist -1.6, LANA-H2A inh 4.6, RanGTP-Imp inh -1.5 and Vif TR-FRET inconclusive.
For CC(NC(=O)C(=O)N/N=C/c1ccc(Cl)cc1)c1ccccc1 (centres undefined) the results were HNF4A DNA FP -2.7, Calb FLC 5.9, Beta2AR agonist -3.2, LANA-H2A inh -0.5, RanGTP-Imp inh 8.0, Vif TR-FRET inconclusive and ALR inh -12.8.
`O=C(Cc1c(F)cccc1Cl)Nc1cc(S(=O)(=O)N2CCOCC2)ccc1N1CCOCC1` gave HNF4A DNA FP -2.7, Beta2AR agonist -5.0 and Vif TR-FRET -4.3%.
Screening Cc1[nH]nc(S(=O)CC(=O)O)c1[N+](=O)[O-] (centres undefined) returned HNF4A DNA FP 0.7, Calb FLC -2.6, Beta2AR agonist 4.4, LANA-H2A inh 2.9, RanGTP-Imp inh -1.6, Vif TR-FRET -5.1% and ALR inh 0.3.
`CC(C)(C)n1ncc(Oc2ccccc2[N+](=O)[O-])c(Cl)c1=O` gave HNF4A DNA FP -2.5, Calb FLC -6.7, Beta2AR agonist 14.3, LANA-H2A inh 2.3, RanGTP-Imp inh 3.7, Vif TR-FRET 0.0% and ALR inh -6.6.
O=C(CSc1nccc(=O)[nH]1)NN(c1ccccc1)c1ccccc1 was read as HNF4A DNA FP 1.1, Calb FLC 33.5, Beta2AR agonist 0.2, LANA-H2A inh -2.2, RanGTP-Imp inh -3.3, Vif TR-FRET -9.0% and ALR inh 23.3.
